Lassa entry: Lassa virus entry inhibition | Lassa virus pseudotyped entry inhibition, cell-based qHTS; control for the full effect not named in the record; many of its hits are not listed in these tables | Potency, µM (doses to about 49.2 µM), for the others: top-dose activity change, negative = inhibition, hits mostly inhibitors | 18,000 compounds, 4.1% hits | AID 720533; active = well fitted inhibition curve with a large enough effect; inconclusive = small, poorly fitted or top-dose-only effect; inactive = no such curve, though single readings can be large or run the other way; tested in HEK293 cells; note: luciferase read-out
Marburg entry: inhibitors of Marburg virus binding or entry into cells; 18,000 compounds, 6.5% hits; Marburg virus pseudotype entry/binding inhibition, cell-based; control for the full effect not named in the record; many of its hits are not listed in these tables; Potency, µM (doses to about 49.2 µM), without a hit: top-dose activity change, negative = inhibition, usual class: inhibitors; active means well fitted inhibition curve with a large enough effect; inconclusive means small, poorly fitted or top-dose-only effect; inactive means no such curve, though single readings can be large or run the other way; tested in HEK293 cells; note: luciferase read-out
The depositor's hits bear a star; ? = inconclusive; & = joins results of further samples; [ ] = remark or other dose. % is set by controls: 0 for no effect and ±100 for the full control effect; potency is the fitted concentration of half-maximal effect.

Sample of the layout (three entries):
SMILES	Lassa entry	Marburg entry
C=CCOc1cc(Cl)ccc1C(=O)NCCN(CC)CC	?	?
O=C(CS(=O)Cc1ccco1)NC/C=C\COc1cc(CN2CCCCC2)ccn1 (stereo not given)	-16.0%	?
CCCCC(=O)O[C@]1(C(=O)CO)[C@H](C)C[C@H]2[C@@H]3CCC4=CC(=O)C=C[C@]4(C)[C@@]3(F)[C@@H](O)C[C@@]21C	-9.5%	2.5%

This part in full (from the top)
SMILES	Lassa entry	Marburg entry
C=CCOc1cc(Cl)ccc1C(=O)NCCN(CC)CC	?	?
O=C(CS(=O)Cc1ccco1)NC/C=C\COc1cc(CN2CCCCC2)ccn1 (stereo not given)	-16.0%	?
CCCCC(=O)O[C@]1(C(=O)CO)[C@H](C)C[C@H]2[C@@H]3CCC4=CC(=O)C=C[C@]4(C)[C@@]3(F)[C@@H](O)C[C@@]21C	-9.5%	2.5%
CCCOC(C(=O)OC1CCN(C)CC1)(c1ccccc1)c1ccccc1	15.8µM*	6.31µM*
Nc1c2c(nc3ccccc13)CCCC2O (stereo not given)	-1.1%&-1.0%	-10.0%&-20.2%
CC(=O)Nc1ncc([N+](=O)[O-])s1	-2.6%	11.8%
C#CCC(Cc1cnc2nc(N)nc(N)c2n1)c1ccc(C(=O)N[C@@H](CCC(=O)O)C(=O)O)cc1 (stereo not given in full)	?	?
CCn1cc(C(=O)O)c(=O)c2cc(F)c(N3CCNCC3)nc21	-16.0%[17.8 µM]	-4.5%[17.8 µM]
O=C(Nc1ccc(Cl)c(Cl)c1)C1CC1	-9.1%	5.6%
CC(=O)Nc1ccc(S(=O)(=O)Nc2cc(C)on2)cc1	-12.8%	0.9%
C/C(=C(\CCO)SS/C(CCO)=C(\C)N(C=O)Cc1cnc(C)nc1N)N(C=O)Cc1cnc(C)nc1N	-3.6%	7.9%
CCCCCCCCCCCCCCNCCO	-14.0%	3.3%
CNc1c2c(nn1C)CCCC2	1.1%	3.1%
CN(C)CCOc1ccccc1Cc1ccccc1 (tested in a mixture with another compound)	-24.2%	?
COc1ccc(/C=N/NC(=O)c2ccncc2)cc1OC	-11.1%	27.4%
Cc1cc(C)cc(OCC2CNC(=O)O2)c1 (stereo not given)	-1.2%	17.3%
Cc1cccc(C)c1NC(=O)CN(CC(=O)O)CC(=O)O	-5.3%	4.9%
COc1ccc(/C=C\C(=O)Nc2ccccc2C(=O)O)cc1OC	20µM*	39.8µM*
CN(C)CCOc1ccccc1Cc1ccccc1	10.1%	?
C/C(=N\O)c1ccc(OCC(=O)N2CCCCC2)cc1	8.6%	13.7%
CCC(=O)O[C@]1(C(=O)SCF)[C@H](C)C[C@H]2[C@@H]3C[C@H](F)C4=CC(=O)C=C[C@]4(C)[C@@]3(F)[C@@H](O)C[C@@]21C	-29.2%[17.8 µM]	?
OCc1ccccn1	-0.8%	1.8%
CC(C)(C)c1nnc(NS(=O)(=O)c2ccccc2)s1	-8.7%	-5.2%
Cc1cccc(Nc2cc(Cl)nc(SCC(=O)O)n2)c1C	1.0%&0.0%&8.4%&-19.3%&0.5%	5.3%&-2.0%&-3.3%&-17.9%&47.3%
CC1OC(OCC2OC(Oc3cc(O)c4c(c3)OC(c3ccc(O)cc3)CC4=O)C(O)C(O)C2O)C(O)C(O)C1O (stereo not given)	-4.9%	0.2%

Three entries already listed, ordered by formula weight, descending:
SMILES	Lassa entry	Marburg entry
CC1OC(OCC2OC(Oc3cc(O)c4c(c3)OC(c3ccc(O)cc3)CC4=O)C(O)C(O)C2O)C(O)C(O)C1O (stereo not given)	-4.9%	0.2%
Cc1cccc(Nc2cc(Cl)nc(SCC(=O)O)n2)c1C	1.0%&0.0%&8.4%&-19.3%&0.5%	5.3%&-2.0%&-3.3%&-17.9%&47.3%
C/C(=N\O)c1ccc(OCC(=O)N2CCCCC2)cc1	8.6%	13.7%

Fetched by structure from the entries so far, 3 records:
SMILES	Lassa entry	Marburg entry
Cc1cccc(Nc2cc(Cl)nc(SCC(=O)O)n2)c1C	1.0%&0.0%&8.4%&-19.3%&0.5%	5.3%&-2.0%&-3.3%&-17.9%&47.3%
CN(C)CCOc1ccccc1Cc1ccccc1 (tested in a mixture with another compound)	-24.2%	?
CC(=O)Nc1ccc(S(=O)(=O)Nc2cc(C)on2)cc1	-12.8%	0.9%

Continued:
SMILES	Lassa entry	Marburg entry
NCCNC(=O)c1ccc(Cl)cn1	4.1%	-10.4%
CCCCOc1ccc(CC(=O)NO)cc1	?	-4.9%[17.8 µM]
CC(=O)Oc1ccc2c(c1)CC[C@@H]1[C@@H]2CC[C@]2(C)[C@@H](O)CC[C@@H]12	-25.4%	2.1%
CCOC(=O)NNc1nncc2ccccc12	12.5%	17.1%
C/C=C/C=N/NC(=O)c1ccncc1	5.6%	-9.7%
C#C[C@@]1(O)CCC2C3CCC4=CC(=O)CCC4C3CC[C@@]21CC (stereo not given in full)	-6.7%	-6.8%
COc1ccc(-c2cc(=O)c3c(OC)c(OC)c(OC)cc3o2)cc1OC	?	?
COc1ccc(/C=C/C(=O)O)cc1	-5.0%&6.8%	12.0%&7.9%
O=C(Nc1ccc(C(=O)O)c(O)c1)c1ccccc1	-5.8%	-9.8%
O=P(O)(O)OC(CO)CO	-26.4%&-6.7%	-11.0%&-3.1%
NNC(=O)CP(=O)(c1ccccc1)c1ccccc1	6.4%	15.9%
CNC1CCCN(c2c(F)cc3c(=O)c(C(=O)O)cn(C4CC4)c3c2OC)C1 (stereo not given)	2.6%	2.4%
CC(C)[C@@H]1CC[C@@H](C)CC1=O	-7.1%	-1.0%
COc1ccc(CN2CCN(C(c3ccc(F)cc3)c3ccc(F)cc3)CC2)c(OC)c1OC	22.4µM*	10µM*
COc1ccc(S(=O)(=O)N2c3ccc(Cl)cc3[C@@](O)(c3ccccc3Cl)[C@H]2C(=O)N2CCC[C@@H]2C(N)=O)cc1OC	-25.2%	-20.2%
COc1ccc2nc(NC(=O)Nc3ccccc3)sc2c1	-18.2%	3.2%
COc1ccc(-c2cc(=O)c3c(O)c(OC)c(OC)c(OC)c3o2)cc1OC	-1.0%	11.6%
CCCCCCCCCCCCCC[N+](C)(C)Cc1ccccc1	28.2µM*	?
O=C(NN1CCCC1)NS(=O)(=O)c1ccc(Cl)cc1	-3.8%	1.1%
Cc1cccc(C)c1NC(=O)C1CCCCN1C (stereo not given)	0.6%	9.1%
Cc1ccc2nc(NCCN)c3ncc(C)n3c2c1	?	7.94µM*
CCCCNC(=O)[C@@H]1Cc2ccccc2N1C(=O)[C@H](N)CC	-3.5%	-8.7%
Cn1c(=O)c2c(ncn2CCO)n(C)c1=O	-3.1%	7.7%
Cc1ccc2nc(N)[nH]c(=O)c2c1Sc1ccncc1	?	-23.3%
NS(=O)(=O)c1cc(-c2nn[nH]n2)c(NCc2cccs2)cc1Cl	-8.0%	0.5%
CC(=O)Nc1ccccc1	10.0%&-13.6%	-1.8%&6.5%
CC1CC2C3CC(F)C4=CC(=O)C=C[C@@]4(C)[C@@]3(F)C(O)C[C@]2(C)[C@]1(O)C(=O)COC(=O)C(C)(C)C (stereo not given in full)	-1.4%	-3.6%

For reference, some entries already given.
SMILES	Lassa entry	Marburg entry
Cc1ccc2nc(NCCN)c3ncc(C)n3c2c1	?	7.94µM*
CCCCNC(=O)[C@@H]1Cc2ccccc2N1C(=O)[C@H](N)CC	-3.5%	-8.7%
Cn1c(=O)c2c(ncn2CCO)n(C)c1=O	-3.1%	7.7%
Cc1ccc2nc(N)[nH]c(=O)c2c1Sc1ccncc1	?	-23.3%
NS(=O)(=O)c1cc(-c2nn[nH]n2)c(NCc2cccs2)cc1Cl	-8.0%	0.5%

Bioassay records deposited in PubChem BioAssay by National Center for Advancing Translational Sciences (NCATS).

The list is partial (hit frequency here may not be typical).
